PKD1 inh – PKD1 (human) kinase inhibition. PKD1 kinase fluorescence polarization assay. inhibition, %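 (about 10 µM by stock and volumes)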. 0.056% of 200,000 active;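 active means inhibition of 50% or more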;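 further: controls were vehicle for no effect and a reference inhibitor for full effect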
Target sequence (Q15139 whole entry, looked up): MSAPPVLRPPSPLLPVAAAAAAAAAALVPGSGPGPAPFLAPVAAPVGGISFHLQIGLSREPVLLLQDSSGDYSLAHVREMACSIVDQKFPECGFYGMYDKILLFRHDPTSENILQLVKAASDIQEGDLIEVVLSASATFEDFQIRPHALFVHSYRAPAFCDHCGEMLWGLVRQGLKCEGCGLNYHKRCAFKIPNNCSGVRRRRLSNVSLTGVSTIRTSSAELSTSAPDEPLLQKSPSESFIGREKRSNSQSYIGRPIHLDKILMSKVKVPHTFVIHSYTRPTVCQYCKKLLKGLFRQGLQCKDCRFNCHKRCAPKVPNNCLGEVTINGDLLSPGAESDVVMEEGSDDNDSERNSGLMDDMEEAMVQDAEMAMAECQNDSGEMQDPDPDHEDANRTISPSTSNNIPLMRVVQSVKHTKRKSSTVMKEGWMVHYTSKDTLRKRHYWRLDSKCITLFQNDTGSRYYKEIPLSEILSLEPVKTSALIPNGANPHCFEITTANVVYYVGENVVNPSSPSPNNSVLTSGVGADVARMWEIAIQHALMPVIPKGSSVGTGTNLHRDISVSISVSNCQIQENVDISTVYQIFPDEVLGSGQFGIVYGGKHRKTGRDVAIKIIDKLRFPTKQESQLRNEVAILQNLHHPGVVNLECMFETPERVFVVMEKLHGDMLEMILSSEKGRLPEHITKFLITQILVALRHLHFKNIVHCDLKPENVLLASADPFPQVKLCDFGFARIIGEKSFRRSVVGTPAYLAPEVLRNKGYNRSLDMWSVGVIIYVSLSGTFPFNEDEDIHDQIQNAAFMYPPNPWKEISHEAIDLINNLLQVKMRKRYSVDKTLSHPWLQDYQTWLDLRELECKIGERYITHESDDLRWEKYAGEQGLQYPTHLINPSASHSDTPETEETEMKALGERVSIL
HSV augment – increases HSV replication in cells | HSV replication augmentation in cells, fold increase | maximum fold increase | 0.005% of 220,000 active | AID 1956;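 active means peak rise of 1.5-fold or more in the series; tested in PC3 cells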;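 further: first round at 10 µM; read as green reporter fluorescence; hits show the peak of a series up to 25 µM; 1 = signal of infected wells without compound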
RGS16-Gao – modulates binding between human RGS16 and Galphao; binding response (% of control), % at 10 µM; bead-based flow cytometry RGS16-Galphao binding, fluorescence; actives lie on both sides; 0.38% of 220,000 active; O15492+P09471;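 active means below 25% or above 175%, edge rows of some plates excepted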;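 further: Galphao activated by GDP with aluminum fluoride before binding; 100% = wells without compound and 0% = beads without RGS; some results beyond the cut were filed as inactive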
INS promoter inh – TRM-6 insulin promoter activity inhibition. 0.9% of 130,000 active. inhibition, % at 2 µM. TRM-6 cells (human fetal islet line), insulin promoter-eGFP reporter, imaging; reporter expression induced with tamoxifen;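 active means inhibition above the mean plus 3 SD, with well images judged a real hit on visual review, cut at about 60% in these data, passing the limit was not always enough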
GALR2 ag – agonists of human galanin receptor 2 (GALR2); 0.48% of 140,000 active; activation, %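 (tested at 5 µM)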; GALR2-expressing cells, agonist activation read-out; O43603;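 active means above mean plus 3 SD of all compounds, about 5% in these data, not always enough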;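 further: 0% = vehicle buffer wells and 100% = reference agonist at full effect; tested in CHO reporter cells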
INS promoter inh cell count – second read-out of INS promoter inh, no call of its own (marks repeat the call); normalized cell count, %; measured here: cell count, toxicity; reference of the scale not given here;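 cells exposed to compound for 48 h; stained nuclei by imaging scaled within each plate; lower means fewer cells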
HSV augment primary fold – further read-out of HSV augment, marked with its call; fold increase; compound at 10 µM; measured here: primary screen fold increase 10 uM; tested in PC3 cells;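 GFP signal in the first replicate; 1 = infected wells without compound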
Starred values were filed as active, the others as inactive; i = inactive; x = not tested or not shown; + = active, no number.

SMILES	PKD1 inh	HSV augment	HSV augment primary fold	RGS16-Gao	INS promoter inh	INS promoter inh cell count	GALR2 ag
COc1ccc(-c2cc(-c3ccccc3)nc(-c3ccc4c(c3)NC(=O)CO4)c2)cc1	-0.3	i	0.73	103.3	-20.0	125.9	-0.9
CC1CC(C)CN(C(=O)Cn2c(=O)n(CCCCC(=O)NC3CCCC3)c(=O)c3ccccc32)C1 (stereo not drawn)	-12.6	i	0.91	92.1	x	x	-2.2
O=C1/C(=C/c2ccc(F)cc2)SC(=S)N1N1CCOCC1	x	i	1.28	99.1	x	x	x
O=C(Nc1cccc2ccccc12)N1CC=C(c2ccccc2)CC1	2.1	i	1.04	99.6	x	x	0.5
Cc1cccc(Nc2nc(N)c([N+](=O)[O-])c(N3CCC(C)CC3)n2)c1	2.0	i	0.84	54.2	-7.1	97.4	2.9
CNC(=O)c1ccsc1NC(=O)c1sc2ccccc2c1Cl	1.6	x	x	98.0	26.8	138.5	-0.2
CC(=O)N1CCc2cc(S(=O)(=O)NCCC(=O)NC3CCCc4ccccc43)ccc21 (stereo not drawn)	-2.6	x	x	15.3	-243.8	83.9	-3.4
O=C(Nc1nc(-c2ccc(F)c(F)c2)cs1)c1ccc(OCC2CCCO2)cc1 (stereo not drawn)	9.2	i	0.88	101.9	x	x	4.2
COc1ccc(NC(=O)C23CCC(C)(C(=O)C2)C3(C)C)cc1 (stereo not drawn)	1.4	i	1.03	102.6	16.2	173.8	0.9
COc1ccc(C(=O)OCC(=O)NC2CC2)cc1S(=O)(=O)N1CCOCC1	-0.7	i	0.92	102.2	0.0	120.4	x
O=C(NNc1nc(N2CCOCC2)nc(N2CCOCC2)n1)Nc1ccc(Cl)cc1	2.4	i	0.89	103.3	x	x	x
Cc1ccc(-c2csc3ncnc(Nc4ccc(C(=O)O)cc4)c23)cc1	x	i	0.77	100.5	x	x	x
O=C(O)C1C(c2ccccc2)C(C(=O)OCc2ccco2)C1c1ccccc1 (stereo not drawn)	1.4	i	0.76	98.7	34.8	110.8	-1.0
CCCC(=O)OCCNc1cc(Sc2nc3ccccc3[nH]2)c2nonc2c1[N+](=O)[O-]	-6.4	i	0.61	11.8	-60.0	4.7	4.6
Cc1ccc(OCc2ccc(C(=O)O)o2)c([N+](=O)[O-])c1	2.9	i	1.05	99.1	-16.1	128.0	-0.3
Cc1ccc(/C=C/C(=O)N2CCCC(C)C2)cc1 (stereo not drawn)	-4.5	i	1.01	100.2	-46.7	86.4	-0.2
CCOC(=O)Cc1cc(=O)c2cc(C)ccc2[nH]1	x	i	0.88	102.5	x	x	x
CC1(C(=O)NC2CCCC2)CCC(=O)N1Cc1ccccc1 (stereo not drawn)	-7.0	i	1.04	99.2	x	x	-2.6
C=CCS(=O)(=O)c1cccc2cccnc12	-4.2	i	1.05	51.4	0.0	84.1	x
O=C(O)CCn1cnc2ccccc2c1=O	-5.3	i	0.93	98.3	x	x	-0.8
Cc1ccc(-c2csc3nnc(SCC(=O)N4CCN(Cc5ccccc5)CC4)n23)cc1	-8.0	i	1.14	105.3	x	x	1.5
Cc1ccc(C(=O)Nc2cccc(C(F)(F)F)c2)cc1Nc1ccccn1	x	i	0.73	105.3	x	x	x
CC(C)NC(=O)NC(=O)CSc1ccccc1F	0.8	i	1.11	115.7	x	x	-0.6
COc1ccc(C(=O)NC(=S)Nc2cccnc2)cc1OC	7.4	i	0.94	100.9	x	x	x
CCN(CC)S(=O)(=O)c1ccc2oc(C(=O)NC3CCCc4ccccc43)c(C)c2c1 (stereo not drawn)	0.0	i	1.29	102.3	-10.7	117.4	-1.6
O=C(Nc1ccc(NC(=O)c2cccs2)c(Cl)c1)c1ccco1	2.3	i	0.94	99.3	x	x	x
O=C(Nc1ccc(N2CCN(Cc3ccccc3)CC2)cc1)c1ncn[nH]1	-7.0	i	0.8	97.9	31.8	69.2	-1.9
O=C1N=C(N2CCOCC2)S/C1=C/c1cccs1	-3.4	i	0.95	101.7	-9.3	80.7	-0.2
Oc1ccc(O)c(Cc2nc3ccccc3s2)c1	-0.1	i	0.96	83.0	9.1	96.2	x
CON1C(=O)C(=O)N(OC)C2CCCCC21 (stereo not drawn)	8.0	x	x	100.0	21.4	124.7	-2.2
O=C(C1CCN(S(=O)(=O)c2cccs2)CC1)N(c1ccccn1)C1CCCCC1	7.6	i	1.02	103.7	-45.5	63.0	x
Cc1cc(C(=O)OCC(=O)c2ccc(Br)s2)no1	-2.5	i	1.06	96.8	12.1	126.9	-1.4
CCOc1ccc(C(=O)NCc2ccncc2)cc1OCC	-8.4	i	1.02	103.5	x	x	-1.4
CS(=O)(=O)N(CC(=O)NCCC1=CCCCC1)C1CCCCC1	2.3	i	0.88	106.8	10.5	46.6	0.3
Clc1nnc(NN=C2CCCC2)c2ccccc12	5.8	i	0.95	108.4	x	x	-0.8
CC(C)c1ccc(NC(=O)C(c2ccccc2)N(C)C(=O)c2cnccn2)cc1 (stereo not drawn)	-4.3	i	0.95	105.9	-20.0	87.3	x
O=C(O)c1ccc2nc(-c3ccccc3)c(-c3ccccc3)nc2c1	-2.9	i	1.11	103.4	50.0	40.9	-0.9
CCCNc1nc2c(c(=O)n(C)c(=O)n2C)n1Cc1cccc(C)c1	5.7	i	0.91	100.1	-15.8	79.2	0.7
CCCCN(C(=O)CN1CC(C)OC(C)C1)c1c(N)n(CC(C)C)c(=O)[nH]c1=O (stereo not drawn)	4.9	i	1.06	102.8	x	x	-1.1
COC(=O)c1ccc(C2/C(=C(\O)c3cccc(OC)c3)C(=O)C(=O)N2CCCN(C)C)cc1 (stereo not drawn)	-2.6	i	1.01	107.2	55.6	116.1	-1.1

Ordered by molar mass (ascending): some entries from above.
SMILES	PKD1 inh	HSV augment	HSV augment primary fold	RGS16-Gao	INS promoter inh	INS promoter inh cell count	GALR2 ag
O=C1N=C(N2CCOCC2)S/C1=C/c1cccs1	-3.4	i	0.95	101.7	-9.3	80.7	-0.2
O=C(O)c1ccc2nc(-c3ccccc3)c(-c3ccccc3)nc2c1	-2.9	i	1.11	103.4	50.0	40.9	-0.9
COC(=O)c1ccc(C2/C(=C(\O)c3cccc(OC)c3)C(=O)C(=O)N2CCCN(C)C)cc1 (stereo not drawn)	-2.6	i	1.01	107.2	55.6	116.1	-1.1

A different layout for five compounds above.
Value order: PKD1 inh, HSV augment, HSV augment primary fold, RGS16-Gao, INS promoter inh, INS promoter inh cell count, GALR2 ag
O=C1/C(=C/c2ccc(F)cc2)SC(=S)N1N1CCOCC1
    x, i, 1.28, 99.1, x, x, x
O=C(Nc1cccc2ccccc12)N1CC=C(c2ccccc2)CC1
    2.1, i, 1.04, 99.6, x, x, 0.5
Cc1cccc(Nc2nc(N)c([N+](=O)[O-])c(N3CCC(C)CC3)n2)c1
    2.0, i, 0.84, 54.2, -7.1, 97.4, 2.9
CNC(=O)c1ccsc1NC(=O)c1sc2ccccc2c1Cl
    1.6, x, x, 98.0, 26.8, 138.5, -0.2
CC(=O)N1CCc2cc(S(=O)(=O)NCCC(=O)NC3CCCc4ccccc43)ccc21 (stereo not drawn)
    -2.6, x, x, 15.3, -243.8, 83.9, -3.4

Additional results
SMILES	PKD1 inh	HSV augment	HSV augment primary fold	RGS16-Gao	INS promoter inh	INS promoter inh cell count	GALR2 ag
CCCCn1c(SCC2CCCO2)nc2cc(S(N)(=O)=O)ccc21 (stereo not drawn)	-1.7	i	0.95	104.0	40.0	103.0	-2.6
COc1ccc(CCNC(=O)CCN2C(=O)C3CC=CCC3C2=O)cc1OC (stereo not drawn)	-12.0	i	0.973	96.1	25.8	59.5	-1.0
CC(CC(=O)Nc1ccncc1)c1ccccc1 (stereo not drawn)	-4.8	i	1.07	115.8	x	x	-1.9
CCC(=O)Nc1ccc2ccccc2c1	-9.1	i	0.94	109.0	-9.1	111.2	-1.2
O=c1c2cc(N3CCOCC3)ccc2[nH]c(=S)n1CCCN1CCCCCC1	10.8	i	0.9	101.6	25.0	113.0	-3.0
COc1cccc(CC2(CO)CCCN(Cc3ccc(CO)o3)C2)c1 (stereo not drawn)	-2.5	i	1.04	101.3	x	x	x
Cc1ccccc1CN1C(=O)CSc2ccc(C(=O)N3CCOCC3)cc21	-7.8	i	1.01	96.3	-7.7	138.2	-0.8
COc1ccc(/C=C/C(=O)NC(=S)Nc2cc([N+](=O)[O-])ccc2O)cc1OC	-7.9	i	0.8	105.9	x	x	x
O=C(CC1OC(=O)c2ccccc21)Nc1ccccc1N1CCOCC1 (stereo not drawn)	7.4	i	0.97	102.5	x	x	-2.2
Cc1cc2ccccc2nc1SCC(=O)N1c2ccccc2CC1C (stereo not drawn)	-2.3	i	1	81.2	100.0*	60.3*	-2.6
Nc1nc2ccccc2nc1N1CCCC1	1.6	i	0.85	100.8	52.8	122.8	-3.1
CN1CCN(c2ccc(NC(=O)CN3CCOCC3)cc2F)CC1	-0.7	i	0.96	102.6	x	x	x
CCSc1nnc(Cn2c(=O)sc3ccccc32)n1-c1ccccc1C	-16.1	i	0.99	112.1	x	x	-1.0
CCCN(CCC)CCCNC(=O)c1cc2c(=O)[nH]c3ccccc3c2n1C	-5.8	i	0.97	101.0	x	x	x
O=C(OCCN1C(=O)c2ccccc2C1=O)c1cccs1	-6.1	i	0.86	+	x	x	-0.7
CCc1c(C)nc2ncnn2c1NCCc1ccc(Cl)cc1	0.8	i	0.92	98.1	x	x	x
Cc1ccc(NC(=O)Cn2nnc3ccccc3c2=O)cc1	-5.0	i	0.96	108.6	0.0	78.7	x
C#Cc1ccc([C@@H]2C=C(C(=O)N3CCN(Cc4ccc5c(c4)OCO5)CC3)O[C@H](OCCCCO)C2)cc1	12.8	x	x	98.5	x	x	x
COc1ccc(CC(NC(C)=O)C(=O)N2CCN(C(=O)Nc3cccc(F)c3)CC2)cc1OC (stereo not drawn)	-3.8	i	1.1	102.0	x	x	x
CCC/C=N/NC(=O)c1[nH]c2c([N+](=O)[O-])cccc2c1C	-4.3	i	0.72	100.9	-23.5	47.4	-1.5
Oc1ccc(N=Nc2c(O)ccc3ccccc23)cc1	12.8	i	0.96	120.4	-8.3	80.6	-5.5
O=C(CSCc1ccc([N+](=O)[O-])cc1)N/N=C/c1cccnc1	-6.7	i	0.97	101.1	x	x	x
COc1cc(S(=O)(=O)N2CCCCCC2)ccc1-n1cnnn1	-0.6	i	0.91	102.4	17.4	136.9	-2.6
Cc1c(NC(=O)C(=O)/C=C(\O)c2ccc(Br)cc2)c(=O)n(-c2ccccc2)n1C	-0.1	i	1.11	102.1	x	x	-3.0
CC1CCCC(C)N1S(=O)(=O)c1ccc(S(=O)(=O)NCCc2ccncc2)cc1 (stereo not drawn)	2.3	i	0.96	58.2	-50.0	134.6	0.1
COC(=O)c1ccc(Nc2nnc(-c3ccc(C)c(S(=O)(=O)NCC4CCCO4)c3)c3ccccc23)cc1 (stereo not drawn)	-10.5	i	0.87	96.9	40.7	127.9	2.0
Cc1cc(NC(=O)CSc2nc3cc(Cl)ccc3c(=O)n2Cc2ccco2)no1	4.4	i	0.86	98.6	x	x	x
Cc1ccc(-n2nc(C)c(=O)c(-c3ccccc3)c2NC(=O)C(C)C)cc1	x	i	0.95	99.0	x	x	x
COc1ccc(C(=O)COC(=O)C2CCC(=O)N2)cc1 (stereo not drawn)	-5.9	i	0.99	102.3	x	x	x
O=C(NCCC1=CCCCC1)C(=O)c1c[nH]c2ccccc12	-4.0	i	0.94	98.1	32.3	103.0	-1.5
Cc1ncc(CC(=O)n2cc(C(=O)c3cc(F)ccc3O)cn2)s1	1.1	i	0.96	95.2	19.4	99.3	-4.2
Fc1cccc(CN2CCN(c3ncccn3)CC2)c1	-16.4	i	0.81	168.5	x	x	-1.5
N#Cc1c(Cl)nsc1NN	-6.4	i	1.03	103.9	x	x	x
NC(=O)c1ccccc1O	0.1	i	0.93	104.1	-4.8	122.5	-0.9
CC(Sc1ccc(Br)cc1)C(N)=O (stereo not drawn)	-9.6	i	0.95	102.8	x	x	-1.2
COc1cccc(CN(C)c2nc(-c3cccs3)nc3ccccc23)c1	0.9	i	1.12	88.6	40.7	81.3	-1.3
CCC(C)c1ccc(-c2cc(C(=O)OCC(=O)Nc3cc(C)on3)c3ccccc3n2)cc1 (stereo not drawn)	3.5	i	1.01	100.8	-17.9	98.7	0.9
CCC(=O)N1CCCc2cc(S(=O)(=O)NCc3cccs3)ccc21	-14.3	i	1	101.0	x	x	-0.2
CN(C)CCNC(=O)C(C(=O)c1ccccc1)n1ccccc1=O (stereo not drawn)	-11.2	i	0.79	102.6	86.7*	49.3*	-0.8
Cc1ccc(-c2nc3ccccc3c(=O)n2CCCN2CCOCC2)cc1	-7.0	i	0.88	101.1	x	x	-1.1
COc1ccc(Cc2nnc(NC(=O)Cc3cccs3)s2)cc1	-1.2	x	x	88.8	x	x	-0.6
CCOc1ccccc1N1CCN(C(=O)c2csc(C)c2CC)CC1	6.0	i	0.98	101.1	x	x	x

This is a random part of the collection. Share with any hit: about 1.3%.
